Beta apoptosis: blocks beta cell apoptosis. hit rate 0.8% among 300,000. protection from apoptosis, % (test concentration not listed). INS-1E cytokine-induced death, ATP luminescence, 48 h; percent of positive-control rescue, neutral wells zero;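 active means all replicates at 75% or more, or half of them and the mean; inconclusive means half reach 75% but not the mean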;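 further: 0% = cytokine-treated negative control wells and 100% = positive control rescue; higher means more ATP so stronger rescue from cytokine killing; wells of about 40 µL received 100 nL stock; the first replicate is given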
Bfl-1 A1 inh: inhibitors of the anti-apoptotic protein A1, read as caspase activation. MEF A1-2A-BIM cells, Caspase-Glo 3/7 luminescence, 3 h; percent of clofoctol response, vehicle zero. caspase activation, % (concentration not given with the values). hit rate 0.066% among 330,000;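 active means over half of replicate activation scores above 10%, or exactly half above 10 with the replicate mean above 10; inconclusive means replicate mean below 10 yet half the replicates above 10; inactive means over half of replicates below 10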;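 further: wells of about 30 µL received 50 nL stock; many hits fall short of the cut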
AF4-AF9 inh: blocks AF4 peptide binding to human AF9; P42568; AlphaScreen, biotin-AF4 peptide binding to FLAG-AF9; inhibition, % at 10 µM; hit rate 0.47% among 350,000;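 active means every replicate reaching a set inhibition limit, whatever the replicate mean, cut at about 25% in these data; inconclusive means mean inhibition reaches that limit but some replicates miss it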;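 further: 0% = plate neutral control median and 100% = total signal loss; the record names both 10 and 1 µM as test concentration; the first replicate is given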
Target sequence (P42568 whole entry, looked up): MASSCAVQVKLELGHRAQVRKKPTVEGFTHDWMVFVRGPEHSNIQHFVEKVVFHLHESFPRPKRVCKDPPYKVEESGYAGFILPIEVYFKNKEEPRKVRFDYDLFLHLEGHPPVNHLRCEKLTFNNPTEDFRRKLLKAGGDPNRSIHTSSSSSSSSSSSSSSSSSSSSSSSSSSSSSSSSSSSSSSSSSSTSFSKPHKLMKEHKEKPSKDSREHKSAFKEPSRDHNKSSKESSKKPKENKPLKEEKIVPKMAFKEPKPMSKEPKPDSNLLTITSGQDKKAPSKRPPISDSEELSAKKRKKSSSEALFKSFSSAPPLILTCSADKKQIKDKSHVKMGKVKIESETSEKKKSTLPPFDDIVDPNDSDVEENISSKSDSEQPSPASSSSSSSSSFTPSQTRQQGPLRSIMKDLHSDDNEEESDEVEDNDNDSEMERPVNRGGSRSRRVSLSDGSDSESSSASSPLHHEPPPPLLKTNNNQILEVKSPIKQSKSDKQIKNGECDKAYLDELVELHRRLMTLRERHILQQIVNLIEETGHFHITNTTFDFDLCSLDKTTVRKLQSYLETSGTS
Vif TR-FRET: inhibitors of Vif binding to APOBEC3G peptide, primary screen, biochemical, TR-FRET, GST-Vif 1-94, biotin-A3G peptide, dose response retest (AID 1117319) | hit rate 0.57% among 260,000 | inhibition, %, or IC50 in µM where a hit was titrated | TR-FRET GST-Vif / biotin-A3G peptide binding; higher % means a stronger effect; test concentration not given here; strong numbers were not always called active;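 active means above the screen mean plus three standard deviations and confirmed in dose response; inconclusive means results disagree or hit not tested in dose response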;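 further: Vif residues 1-94 fused to GST binding biotinylated APOBEC3G peptide 110-148; 0% = full assay without inhibitor and 100% = GST in place of GST-Vif; retest series ran down from 100 µM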
An asterisk follows results filed as active; ? = inconclusive; . = no result given.

item	Molecule	Beta apoptosis	Bfl-1 A1 inh	Vif TR-FRET	AF4-AF9 inh
1	Cc1nc2sc(C(c3ccc(Cl)cc3)N3CCN(C(=O)c4ccco4)CC3)c(O)n2n1 (configuration not stated)	-3	-0.6	2%	.
2	Cn1nnc2cc(C(=O)N3CCSCC3)ccc21	-1	-1.8	-5%	.
3	Cc1cc(Cl)c(S(=O)(=O)N2CCCCCC2)cc1OCC(N)=O	-7	2.1	3%	.
4	Cc1cccc(NC(=O)CNC(=O)Cn2ncc(Cl)c(Cl)c2=O)c1C	-4	-0.3	2%	.
5	CC(NC(=O)c1cc2c(s1)CCCC2)C(C)(C)C (configuration not stated)	6	0.3	10%	.
6	Cn1c(SCC(=O)Nc2nc3ccccc3s2)nnc1-c1ccccc1	1	-1.9	29%	.
7	CCN(c1ccccc1)S(=O)(=O)c1ccc(C(=O)NC2CCN(Cc3ccccc3)CC2)cc1	84*	0.5	13%	.
8	CCCC(c1nnnn1C1CCCC1)N1CCN(c2ccccc2F)CC1 (configuration not stated)	0	0.0	-4%	.
9	O=[N+]([O-])c1ccc(/C=C/C2=NN(c3ccccc3)C(c3ccco3)C2)cc1 (configuration not stated)	-1	0.5	-5%	.
10	CCn1c(C)nc2cc(S(=O)(=O)N3CCCC3)ccc21	2	0.0	-3%	.
11	CCOC(=O)c1c(C)[nH]c(C2=NNC(=Nc3ccc(OCC)cc3)SC2)c1C	-1	0.2	-6%	.
12	CCOc1ccc(NC(=O)CN2CCN(CC(=O)Nc3cccc(F)c3)CC2)cc1	-2	-0.1	4%	.
13	COc1ccc(S(=O)(=O)CCC(=O)NCCc2ccc(S(N)(=O)=O)cc2)cc1	-9	-0.3	12%	.
14	O=C(NC(=S)N1CCCc2ccccc21)c1ccc(Cl)cc1	-5	0.3	-36%	.
15	CCCC(=O)OCC(=O)Nc1ccc(N=Nc2ccccc2)cc1	-2	-3.3	-4%	.
16	Cc1cc(C)c(C(=O)COc2cccnc2[N+](=O)[O-])cc1C	-3	2.0	7%	.
17	O=C1S/C(=C\c2ccc(N3CCOCC3)o2)C(=O)N1Cc1ccc(F)cc1	0	-0.1	30%	.
18	O=C(Nc1ccc(N2CCN(C(=O)c3ccccc3)CC2)cc1)c1cc2ccccc2o1	37	-0.5	5%	.
19	Cc1cc(N2CCN(C)CC2)nc2ccc(NC(=O)c3ccc4c(c3)OCO4)cc12	-13	-1.2	-5%	.
20	CON(C)C(=O)CCC1CCCN1C(=O)OC(C)(C)C (configuration not stated)	4	0.1	-1%	.
21	O=C(c1ccco1)N1CCN(CC2CC3C=CC2C3)CC1 (configuration not stated)	-3	1.1	5%	.
22	O=C(O)CCSCc1ccccc1F	5	-1.0	?	.
23	CCOc1ccc(NC(=O)c2cnsn2)cc1	5	-6.6	0%	.
24	CCCCn1c(=O)c2ccccc2c2ccccc2c1=O	-1	0.0	-7%	.
25	N#Cc1c2n(c3c(=O)n(Cc4ccccc4Cl)cnc13)CCCCC2	7	0.5	-1%	.

(next part)
item	Molecule	Beta apoptosis	Bfl-1 A1 inh	Vif TR-FRET	AF4-AF9 inh
26	CC(C)(C)S(=O)(=O)c1ccc2nc3c(n2c1)CCCC3	-5	0.5	-5%	.
27	CC1(C)CC(C)(O)P(=O)(c2ccccc2)O1 (configuration not stated)	7	-0.8	?	.
28	O=C(Nc1ccc2c(c1)OCO2)c1cnn2c(C(F)(F)F)cc(-c3ccco3)nc12	0	0.7	0%	.
29	CSCCC(/C(O)=C(\C#N)c1nc2ccccc2[nH]1)N1C(=O)c2ccccc2C1=O (configuration not stated)	-3	-1.2	-2%	.
30	Cc1cc(C)c(OCC(=O)Nc2ccc(NC(=O)c3ccco3)cc2)c([N+](=O)[O-])c1	-4	0.2	-3%	.
31	CCCCn1c(=NC(=O)c2ccc3c(c2)OCO3)c(C#N)cc2c(=O)n3cccc(C)c3nc21	40	-2.8	7%	.
32	Cc1cc(-c2nnc3n2N=C(C(C)(C)C)CS3)n[nH]1	-7	0.2	23%	.
33	CCCNc1cc(C)c(C#N)c2nc3ccccc3n12	0	0.0	-8%	.
34	CCOC(=O)c1c(C(C)(C)C)oc2ccc(O)cc12	5	-0.4	4%	.
35	CC1=C(C(=O)OCc2ccccc2)C(c2ccc(Cl)cc2Cl)NC(=O)N1CCCC(=O)O (configuration not stated)	4	0.0	-8%	.
36	CCCS(=O)(=O)N1CCC(C(=O)NCC2CCCO2)CC1 (configuration not stated)	2	1.7	-2%	.
37	Brc1cccc(-c2nnc(-c3ccccc3)o2)c1	2	-7.2	-5%	.
38	Cc1cccc(OC(=O)n2c(=S)oc3cc(Cl)ccc32)c1	-2	-0.4	?	.
39	Cn1c(=S)n(/N=C/c2ccc3c(c2)OCO3)c2ccccc21	-2	-0.2	-11%	.
40	O=C(CCCN1C(=O)c2cccnc2C1=O)N1CC(=O)N(CCc2ccccc2)C(=O)C1	-7	0.0	-3%	.
41	C=CCn1c(C)cc(C(=O)CN2C(=O)c3ccccc3S2(=O)=O)c1C	2	-5.4	-8%	.
42	N#Cc1c(-c2ccccc2)nc(SCC(=O)Nc2ccccc2)[nH]c1=O	-7	1.8	6%	.
43	COc1ccc(/C=N/n2c(N)nc3ccccc32)cc1OC	4	0.2	3%	.
44	CCc1ccc(N2CC(C(=O)Nc3ccccc3F)CC2=O)cc1 (configuration not stated)	-4	-0.2	-4%	.
45	CCCCC(c1nnnn1CCOC)N1CCN(CC)CC1 (configuration not stated)	-6	-0.1	?	.
46	Nc1cc(N)cc(-c2nc3ccccc3[nH]2)c1	3	0.3	18%	.
47	O=C(CSc1nc2ncccc2[nH]1)Nc1ccc2c(c1)OCCO2	9	0.0	2%	.
48	Cc1c(C(=O)Nc2ccc(-n3cnnn3)cc2)oc2ccccc12	2	0.9	10%	.
49	NS(=O)(=O)c1ccc(CCNC(=O)CNC(=O)c2ccc(Br)o2)cc1	-1	1.2	4%	.
50	NC(=O)C(CC(=O)O)NC(=O)[C@@H]1CCOc2c(I)cc([N+](=O)[O-])cc2C(=O)N[C@@H](CO)C(=O)N[C@@H](Cc2ccc(O)cc2)C(=O)N1 (some centres not stated)	-5	-0.2	21%	.

Additional structures follow:
item	Molecule	Beta apoptosis	Bfl-1 A1 inh	Vif TR-FRET	AF4-AF9 inh
51	COc1ccccc1-n1nc(C(=O)NCc2ccco2)c2ccccc2c1=O	7	0.1	15%	.
52	CN(C)Cc1cc(C(C)(C)c2cc(CN(C)C)c(O)c(CN(C)C)c2)cc(CN(C)C)c1O	-2	-0.7	?	.
53	Cn1c2c(c(=O)[nH]c1=O)C(NC(=O)c1ccco1)(C(F)(F)F)C(=O)N2 (configuration not stated)	1	0.0	-1%	.
54	CCCC(c1nnnn1Cc1ccco1)N1CCN(c2cc(Cl)ccc2C)CC1 (configuration not stated)	2	-1.1	17%	.
55	COc1ccc(Cn2c(=O)[nH]c3cc(C(=O)NCCCN4CCCCC4)ccc3c2=O)cc1	-8	-1.3	-3%	.
56	COC(=O)C1=C(C)NC(C)=C(C(=O)OC)C1c1ccccc1OCc1c(C)no[n+]1[O-]	4	0.0	3%	.
57	O=C(CSc1nnc(SCc2cccc3ccccc23)s1)N=Nc1c(O)[nH]c2ccccc12	-6	0.6	22%	.
58	Cc1cccc(OCC(=O)Nc2ccc3c(c2)OCCO3)c1	4	-3.8	0%	.
59	CS(=O)(=O)c1ccc2nc(NC(=O)c3cccs3)sc2c1	24	-8.0	-5%	.
60	CC(=O)c1ccc(NCC(=O)N2CCN(c3ccccc3)CC2)cc1	-4	-0.3	7%	.
61	COc1cc(NC(=O)CS(=O)(=O)c2ccc(C)cc2)cc(OC)c1OC	-5	0.4	23µM*	.
62	CCN(CCCNC(=O)CNC(=O)Cn1cnc2ccccc2c1=O)c1ccccc1	0	1.6	22%	.
63	Cc1ccc(C)c(NC(=O)C2(C)CC3c4ccccc4C2c2ccccc23)c1 (configuration not stated)	-2	0.5	-3%	.
64	COc1ccc(C2C(C#N)=C(N)N3C(=C2C#N)Sc2ccccc23)cc1 (configuration not stated)	4	0.4	-20%	.
65	Cn1c(=O)c2ncn(CC(=O)Nc3cccc(-c4nc5ccccc5s4)c3)c2n(C)c1=O	4	0.2	-9%	.
66	COc1cc(N/C=C(\C(C)=O)c2ccccc2)cc(OC)c1	2	0.4	2%	.
67	Cn1c(=O)[nH]c(=O)c2[nH]c(N(Cc3ccccc3)Cc3ccccc3)nc21	14	0.4	7%	.
68	COCCN(C(=O)CNC(=O)c1cccs1)C(C(=O)NC1CCCCC1)c1ccco1 (configuration not stated)	-7	-0.3	20%	.
69	CCOC(=O)C1CCCN(Cc2cc(Br)ccc2OC)C1 (configuration not stated)	-6	0.6	21%	.
70	Cc1ccc2c(c1)sc1nc(=O)n(-c3ccc(Cl)c(Cl)c3)c(=O)n12	-4	0.4	-3%	.
71	CCc1sc(C(=O)Nc2nc(-c3ccccn3)cs2)cc1C	37	-2.2	12%	.
72	COc1ccc(Cn2c(=O)n(Cc3ccco3)c(=N)c3c4c(sc32)COC(C)(C)C4)cc1	7	1.1	3%	.
73	Cc1c(O)ccc2c3c(c(=O)oc12)CCCC3	1	0.1	0%	.
74	Cc1nnc(SCc2cnc(-c3ccc(C(C)C)cc3)s2)n1C	-2	-0.7	25%	.
75	N#Cc1cc2c(nc1SC1CC(=O)N(c3ccccc3)C1=O)CCC2 (configuration not stated)	-5	-3.0	33%	.

New compounds follow
item	Molecule	Beta apoptosis	Bfl-1 A1 inh	Vif TR-FRET	AF4-AF9 inh
76	CCOC(=O)c1c(N2C(=O)Nc3cc(Cl)c(Cl)cc3N2O)sc2c1CCCCC2	-1	0.2	3%	.
77	CCOC(=O)C1CCCN(C(=O)c2cn(CC)c3ccc(S(=O)(=O)N4CCCC4)cc3c2=O)C1 (configuration not stated)	-2	1.0	-2%	.
78	CCc1nnc(NC(=O)CSc2nc3c(c(=O)n2-c2ccccc2OC)SCC3)s1	4	0.7	6%	.
79	Oc1c(C(c2cccs2)N2CCN(c3ccccc3)CC2)ccc2cccnc12 (configuration not stated)	109*	3.5	?	.
80	Clc1ccccc1OCc1nc(-c2ccncc2)no1	-9	-2.1	9%	.
81	CCN(CC)S(=O)(=O)c1ccc(Cl)c(C(=O)N2CCc3ccccc32)c1	3	0.3	?	.
82	CCCn1c(C(O)c2ccc(OC)cc2)nc2ccccc21 (configuration not stated)	-4	-1.4	-3%	.
83	COC(=O)[C@@]1(Cc2ccc(OC)cc2)[C@H]2c3cc(C(=O)N(C)C)n(CCSCCO)c3C[C@H]2CN1C(=O)c1ccccc1	-4	-0.4	?	.
84	CCOC(=O)N1CCN(S(=O)(=O)c2ccc(C)c(C)c2C)CC1	-3	0.0	-9%	.
85	Nn1c(-c2ccccc2Cl)nnc1-c1ccccc1Cl	-12	-2.4	-3%	.
86	N#C/C(=C\c1ccc(-c2ccc(S(=O)(=O)N3CCOCC3)cc2)o1)C(=O)NC1CC1	-4	0.1	17%	.
87	C[C@@H]1NC(=O)[C@H](CCC(N)=O)NC(=O)c2cc([N+](=O)[O-])cc(I)c2NCC[C@@H](C(N)=O)NC1=O	-4	-0.2	12%	.
88	CS(=O)(=O)N1CCN(C(=O)c2ccccc2F)CC1	-1	1.3	7%	.
89	O=S(=O)(c1cccs1)N1CN(Cc2ccc(Cl)cc2)c2nc3ccccc3nc21	-5	1.0	-2%	.
90	COC(=O)c1cc(OC)c(OC)cc1NC(=S)Nc1cccc(C(C)=O)c1	3	-0.5	14%	.
91	CN(C)c1ccc(C(=S)N2CCOCC2)cc1	-3	0.3	9%	.
92	CCCC(=O)OCC(=O)Nc1cc(C(C)(C)C)nn1-c1ccccc1	-3	0.5	0%	.
93	COc1ccccc1-n1c(=O)oc2ccc(Cl)cc2c1=O	104*	-7.8	1%	.
94	N=C1C(c2ccc(Br)cc2)=C(O)C2CCc3ccccc3N12 (configuration not stated)	8	-0.2	1%	.
95	CCC(c1nnnn1C1CCCC1)N(Cc1cccs1)Cc1cc2cccc(C)c2[nH]c1=O (configuration not stated)	13	-0.3	1%	.
96	COc1ccc(C)cc1NC(=S)NNC(=O)c1ccccc1Cl	13	-1.1	13%	.
97	Brc1ccc(-c2cn3cccnc3n2)cc1	-3	-0.4	8%	.
98	CCCN(CC(=O)Nc1ccccc1OC)C(=O)Cc1ccc2c(c1)CCC2	0	0.6	-13%	.
99	CN(C)c1ccc(CNCCC2(O)CCOC(C)(C)C2)cc1 (configuration not stated)	-6	0.3	0%	.
100	O=C(O)C(Cc1ccccc1)N1C(=O)/C(=C/c2cccc3ccccc23)SC1=S (configuration not stated)	-2	-1.4	28%	.
101	Cc1cc2c(cc1C)N(C(=O)CCl)CCN2C(=O)CCl	.	.	2%	2.6
102	CC(=O)N1N=C(N)SC1c1ccc(Cl)c(Cl)c1 (configuration not stated)	.	.	5%	0.5
103	COc1ccc(C2=NNC(=O)C2(C)Br)cc1 (configuration not stated)	.	.	10%	4.1

Source: PubChem BioAssay

A portion of the library. The share of hits here may be higher or lower than overall.
